# Mtb bLac sens: beta-lactam sensitization of Mtb H37Rv, H37Rv | M. tuberculosis H37Rv growth with meropenem, percent inhibition; hits of this screen are not shown here | inhibition, % at 25 µM | 330,000 compounds, 0.27% hits | AID 434955, 2010;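 active = about 74% or more and at least 40 points above the plate without the antibiotic, then above 30% in a dose series; inconclusive = first-round hits that could not be retested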;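 note: growth measured after seven days incubation then overnight dye step; 0% = bacteria only wells and 100% = bacteria with antibiotic; twin plates without the antibiotic show which effects depend on it; some results filed as inactive read as strong as hits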
# YopH PTP inh: YopH tyrosine phosphatase inhibitors, primary screen, biochemical, fluorescence Ex485/Em525. inhibition, %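 (about 10 µM by stock and volumes)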. YopH tyrosine phosphatase [Yersinia enterocolitica]. 140,000 compounds, 0.16% hits;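 active = inhibition of 50% or more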;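 note: controls were vehicle for no effect and minimum signal wells for full effect; inactives centre near -20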
# Mtb H37Rv: M. tuberculosis H37Rv growth inhibitors, H37Rv strain (AID 1626); M. tuberculosis H37Rv growth inhibition; higher % means a stronger effect; inhibition, % at 10 µM, or IC50 in µM where a hit was titrated; 220,000 compounds, 0.95% hits;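 active = confirmed in a dose series; inconclusive = inhibition above 80% but not taken into the dose series; inactive = below 80% or under 30% at every dose of the series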;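 note: bacteria incubated seven days before Alamar blue readout; 0% = bacteria only wells and 100% = bacteria with antibiotic wells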
# Arbovirus inh: antivirals against arbovirus infection, primary screen, cell-based, full library, 10K replicate subset. arbovirus infection cell-based antiviral screen. inhibition, % at 10 µM. 200,000 compounds, 0.37% hits. AID 1251, 2008;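 active = inhibition from about 30%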;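 note: bluetongue infection of BSR cells; cell survival read as ATP light after 72 h; 0% = infected wells without compound and 100% = uninfected wells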
# RecA intein inh: Mtb RecA intein splicing inhibitors, primary screen, biochemical, fluorescence, HTS; inhibition, %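 (about 9 µM by stock and volumes)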; 290,000 compounds, 0.75% hits; cell-free RecA intein splicing; Protein RecA (Mycobacterium tuberculosis (strain ATCC 25618 / H37Rv)), P9WHJ3; in the data active = inhibition above about 30%; inconclusive = no clear call, values can overlap the other calls;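 note: 0% = vehicle wells and 100% = reference inhibitor control wells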
# Target sequence (P9WHJ3 whole entry, looked up): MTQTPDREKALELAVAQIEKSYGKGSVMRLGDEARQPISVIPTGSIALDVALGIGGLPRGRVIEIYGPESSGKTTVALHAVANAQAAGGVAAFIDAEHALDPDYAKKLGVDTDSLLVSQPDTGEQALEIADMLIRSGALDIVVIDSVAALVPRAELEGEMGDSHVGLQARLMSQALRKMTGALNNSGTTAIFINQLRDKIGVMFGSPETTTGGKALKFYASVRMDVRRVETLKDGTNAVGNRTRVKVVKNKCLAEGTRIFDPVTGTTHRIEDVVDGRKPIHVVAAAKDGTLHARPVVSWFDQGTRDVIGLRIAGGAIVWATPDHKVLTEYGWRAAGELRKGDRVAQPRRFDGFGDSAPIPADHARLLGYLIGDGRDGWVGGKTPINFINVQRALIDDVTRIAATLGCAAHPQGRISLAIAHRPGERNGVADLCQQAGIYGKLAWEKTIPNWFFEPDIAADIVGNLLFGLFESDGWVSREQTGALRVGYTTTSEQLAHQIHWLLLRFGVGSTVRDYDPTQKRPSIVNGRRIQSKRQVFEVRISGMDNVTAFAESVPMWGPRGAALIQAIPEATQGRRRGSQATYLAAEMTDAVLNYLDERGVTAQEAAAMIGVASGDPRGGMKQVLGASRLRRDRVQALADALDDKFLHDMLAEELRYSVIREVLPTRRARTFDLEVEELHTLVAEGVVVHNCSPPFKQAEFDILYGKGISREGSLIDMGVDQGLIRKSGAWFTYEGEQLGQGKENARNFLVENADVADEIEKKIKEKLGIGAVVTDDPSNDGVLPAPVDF
# Arbovirus inh repeat: also measured in Arbovirus inh; calls as there; inhibition, %; measured here: 10K subset replicate screen; many hits read low in the repeat;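 first of two repeat runs on a subset; 0% = infected and 100% = uninfected wells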
# An asterisk follows results filed as active; u = inconclusive; x = not tested or not shown. An excerpt (hit frequency here may not be typical).
SMILES,Mtb bLac sens,YopH PTP inh,Mtb H37Rv,Arbovirus inh,RecA intein inh,others
Cc1ccc(NC(=O)N2CCC(C(=O)c3ccc(F)cc3)CC2)cc1,-7,x,x,x,-1.3,
CCCCN1C(=O)C(O)(CC(=O)c2c(C)n[nH]c2C)c2cc(Br)ccc21 (stereo not given),-5,-34,-9%,-3,1.4,
CC(C)CCN(C(=O)CCSc1ccc(F)cc1)c1c(N)n(Cc2ccccc2)c(=O)[nH]c1=O,-1,x,x,x,1.3,
O=C(Nc1cccc(C(F)(F)F)c1)c1cccnc1NCCc1ccccc1,91,-9,58%,-33,10,
O=C(Cc1ccc(Br)cc1)NCc1ccccc1,-1,x,x,x,3.9,
COc1ccc2c(c1)C(=O)C(=O)N2CCS(=O)(=O)c1ccccc1,-3,x,x,x,2.7,
Cc1nnc(NC(=O)C2CCN(c3nnnn3-c3ccccc3)CC2)s1,2,-3,-8%,4,1.4,
COc1cccc(CN2CCN(Cc3ccco3)CC2)c1,-2,x,x,x,-1.0,
CCN(CC)S(=O)(=O)c1cc(NS(=O)(=O)c2cccc(Cl)c2Cl)ccc1C,-1,-23,1%,28,4.9,
Cc1ccc(C2C3=C(CC(C)(C)CC3=O)NC3=C2C(=O)c2ccccc23)cc1 (stereo not given),73,-29,10%,-6,9.3,
Brc1cccc(-c2nnc(SCc3ccon3)n2-c2ccccc2)c1,-1,-45,2%,16,-0.7,Arbovirus inh repeat=4
COc1ccc(OC)c(CN(CCN2CCOCC2)C(=O)Nc2cccc(Cl)c2)c1,7,-17,2%,4,2.1,
C/C=C/c1ccc(OCCN2C(=O)NC(C)(C)C2=O)c(OC)c1,-3,-8,-4%,8,-0.3,
CC(C)CNc1nc(Oc2ccc(=O)[nH]n2)nc(N(C)C)n1,x,-6,6%,-2,x,
S=c1[nH]nc(Cc2cccs2)n1-c1ccccc1Cl,4,x,-3%,0,2.1,
O=C(CSc1nnnn1C1CCCCC1)NCc1ccccc1,-2,-16,0%,2,-0.5,
CC(C)c1nnc(NC(=O)CCC(=O)NCCc2ccccc2)s1,-3,x,-2%,x,x,
O=C(NCCCO)c1ccc(CSc2nc3ccccc3[nH]2)cc1,-6,x,-4%,-1,-2.0,
CCc1noc(C)c1C(=O)Nc1sc(C(=O)N(C)C)c(C)c1C(=O)OC,5,-25,-1%,-1,9.8,
Cc1c(NC(=O)C(C)OC(=O)/C=C/c2ccccc2)c(=O)n(-c2ccccc2)n1C (stereo not given),-6,x,8%,6,-1.4,
CCOC(=O)CNc1nc2ccccc2n2c(C)nnc12,1,x,7%,1,-1.6,
OCC1N=C(c2ccccn2)OC1c1ccccc1 (stereo not given),-8,-51,-5%,12,1.7,
CCOc1ccc(NC(=O)Nc2ccc3c(c2)N(C)C(=O)CS3)cc1,-6,-24,-10%,4,x,Arbovirus inh repeat=2
COc1ccc(OC)c(NC(=O)CCn2cccc2)c1,-6,-40,4%,-6,-2.0,
O=C(COC(=O)CCCN1C(=O)c2ccccc2C1=O)Nc1cc(Cl)cc(Cl)c1,9,-26,-4%,0,4.5,
COc1cccc(C(=O)NCCS(=O)(=O)NCCc2ccccc2)c1,-12,x,x,x,1.7,
O=C(NCc1ccccc1)N(Cc1cc2cc3c(cc2[nH]c1=O)OCCO3)CC1CCCO1 (stereo not given),x,0,-1%,-16,-1.5,
O=C(Cn1cnnn1)OCC(=O)c1ccc(Cl)s1,-4,-41,-7%,8,1.8,
CCOc1ccc(/C(CC)=N/NC(=O)C2(C)CC2(Br)Br)cc1 (stereo not given),-6,-28,1%,7,-1.5,
CCc1ccc(OCC(=O)NNC(=O)Cc2c(F)cccc2Cl)cc1,-3,x,x,x,0.8,
Cc1ccc(C(=O)NNC(=S)NC(=O)c2ccccc2)cc1,98,x,x,x,2.4,
Cc1sc(NC(=O)CSc2nnc(-c3ccc(F)cc3)o2)c(C#N)c1C,-4,2,4%,0,-2.6,
O=C(Nc1ccc(Cl)c(S(=O)(=O)N2CCOCC2)c1)c1cn2ccccc2n1,-1,x,2%,11,-0.4,
CCN(CC)c1ccc(NC(=O)c2ccc(Br)o2)cc1,-5,-22,-2%,-2,-0.4,
CC(C)c1ccc(NC(=O)c2cc(Br)ccc2Br)cc1,8,x,6%,-2,-1.0,
CC1CC(C)CN(C(=O)c2ccc(C(=O)c3ccccc3)cc2)C1 (stereo not given),26,x,x,x,2.4,
O=C(Nc1nnc(-c2cccs2)o1)c1cccc(F)c1,91,-36,u,-20,1.7,Arbovirus inh repeat=-8
Cc1nc2ccc(S(=O)(=O)NCC(=O)N3CCCC(C)C3)cc2s1 (stereo not given),-6,-41,-11%,0,-4.1,
Cc1ccc2c(N)c(C(=O)N(c3ccccc3)c3ccccc3)sc2n1,-10,-27,-4%,-3,-5.6,
CC(C)(C)C(=O)NC1(C(F)(F)F)NC(=O)N(c2ccccc2F)C1=O (stereo not given),-9,x,-5%,x,-0.3,
Cc1ccnc(NC(=O)CSc2ccc3c(c2)OCCO3)c1,-3,x,x,x,-1.0,
Cc1nnc(NCCc2ccccc2)c2ccccc12,20,x,x,x,1.7,
Cc1ccc(O)c(NC(=O)CSc2n[nH]c(C)c2[N+](=O)[O-])c1,2,x,-4%,2,-9.5,
CCOC(=O)c1nn(-c2ccc(OCC)cc2)c2nc(CC(C)C)c(C#N)c(=O)n12,-7,-15,5%,2,-3.4,
CC1CCCC(C)N1CC(O)COc1c(F)cc(Br)cc1F (stereo not given),-7,x,4%,-6,-5.0,
C/C(=N\N=C\c1ccc(N(C)C)cc1)c1cccc([N+](=O)[O-])c1,6,-29,-7%,-1,-3.2,
COc1ccc(C(=O)COC(=O)CCN2C(=O)C3C4CC(C(Br)C4Br)C3C2=O)cc1 (stereo not given),4,-37,-10%,3,-0.1,
COc1ccccc1-c1c(C)oc2c(CN3CCCCC3C)c(O)ccc2c1=O (stereo not given),-2,x,x,x,-0.4,
O=C(NCc1ccccc1Br)C1CCCO1 (stereo not given),-10,x,x,x,0.0,
Cn1c(Cn2c(=O)sc3ccccc32)nnc1SCc1cccnc1,u,-60,-15%,2,-0.1,Arbovirus inh repeat=-1
O=C(Nc1nc(-c2cccnc2)cs1)c1ccccc1Cl,0,x,-7%,4,-2.7,
O=C(c1cc2cc(Cl)ccc2[nH]1)N1CCCCC1,-11,x,x,x,0.4,
O=C(O)C1C2C=CC(C2)C1C(=O)NCc1cccc(Cl)c1 (stereo not given),6,x,x,x,0.6,
C[C@H](NC(=O)OC(C)(C)C)c1nnc(SCC(=O)c2ccc(Cl)cc2)o1,-2,2,-3%,3,0.4,
O=C(CN1CCOCC1)NCC(=O)Nc1ccc(Br)cc1C(=O)c1ccccc1,5,-4,2%,5,x,
O=C(CSc1nnc(-c2ccc(Cl)cc2)n1-c1ccc(Cl)cc1)N/N=C/c1ccco1,-8,-13,-1%,-5,1.3,
CC(OC(=O)c1ccco1)C(=O)NC1CCCC1 (stereo not given),-4,x,x,x,-2.1,
CC1CCC(CN2CCN=C2Nc2ccccc2)CC1 (stereo not given),-8,x,x,x,-1.3,
COc1ccccc1N1CCN(C(=O)CCNS(=O)(=O)c2cc(Br)cnc2N)CC1,-18,x,x,x,3.3,
NC(=O)C1CCN(C(=O)CC2C(=O)NCCN2Cc2cccc(Oc3ccccc3)c2)CC1 (stereo not given),-6,x,x,x,1.4,

# As a short view, part of the list above.
SMILES,Mtb bLac sens,YopH PTP inh,Mtb H37Rv,Arbovirus inh,RecA intein inh,others
Cc1ccnc(NC(=O)CSc2ccc3c(c2)OCCO3)c1,-3,x,x,x,-1.0,
Cc1nnc(NCCc2ccccc2)c2ccccc12,20,x,x,x,1.7,
Cc1ccc(O)c(NC(=O)CSc2n[nH]c(C)c2[N+](=O)[O-])c1,2,x,-4%,2,-9.5,
CCOC(=O)c1nn(-c2ccc(OCC)cc2)c2nc(CC(C)C)c(C#N)c(=O)n12,-7,-15,5%,2,-3.4,
CC1CCCC(C)N1CC(O)COc1c(F)cc(Br)cc1F (stereo not given),-7,x,4%,-6,-5.0,
C/C(=N\N=C\c1ccc(N(C)C)cc1)c1cccc([N+](=O)[O-])c1,6,-29,-7%,-1,-3.2,

# In the list so far, these contain a tert-butyl group:
SMILES,Mtb bLac sens,YopH PTP inh,Mtb H37Rv,Arbovirus inh,RecA intein inh,others
CC(C)(C)C(=O)NC1(C(F)(F)F)NC(=O)N(c2ccccc2F)C1=O (stereo not given),-9,x,-5%,x,-0.3,
C[C@H](NC(=O)OC(C)(C)C)c1nnc(SCC(=O)c2ccc(Cl)cc2)o1,-2,2,-3%,3,0.4,

# The list continues.
SMILES,Mtb bLac sens,YopH PTP inh,Mtb H37Rv,Arbovirus inh,RecA intein inh,others
Cc1ccc(-n2c([S-])c(C(=O)NC(C)c3ccccc3)[n+]3ccccc23)cc1 (stereo not given),1,x,8%,5,-0.3,
Cc1ccc(C(=O)NC2(C(F)(F)F)NC(=O)N(c3ccc(Cl)cc3)C2=O)cc1 (stereo not given),5,-16,1%,2,1.8,
COC(=O)c1ccc2nc(NC(=O)CSCC(=O)OCC(=O)c3ccccc3)sc2c1,4,-18,-9%,2,-0.5,
COC(c1ccccc1)c1c(-c2ccccc2)nn(C)c1Cl (stereo not given),-11,-38,-3%,24,9.2,
CC(C)(C)c1csc(NC(=O)C2COc3ccccc3O2)n1 (stereo not given),10,x,x,x,7.1,
CCCCn1c(N(CCOC(C)=O)C(C)=O)nc2ccccc21,-3,-8,-6%,12,-1.4,
Cc1cc(N2CCC(C)CC2)c(F)cc1[N+](=O)[O-],u,-35,-11%,5,0.8,
Nc1nc(-c2cccnc2)nn1C(=O)c1ccco1,x,-20,x,5,x,
CN(C)Cc1cc(O)c(CN(C)C)cc1O,1,x,0%,x,9.3,
COc1cc(/C=N/NC(=O)c2cc(-c3ccccc3Cl)nc3ccccc23)cc(OC)c1O,-8,x,x,x,-2.5,
COC(=O)c1ccc(N2C(=O)CC(N3CCN(C(=O)c4ccco4)CC3)C2=O)cc1 (stereo not given),-14,-36,-5%,0,0.3,
Cc1cc2nnc(SC3CCOC3=O)n2c2ccccc12 (stereo not given),6,-3,-5%,8,-1.4,
O=C(CN(C(=O)CCC(=O)Nc1nccs1)c1ccccc1F)NCc1ccc(F)cc1,8,x,x,x,-3.2,
COc1ccc(C(=O)Nn2c(SCC(=O)NC3CCCCC3)nc3ccccc3c2=O)cc1,-5,-32,-2%,5,2.3,
N#Cc1c2ccc(OCC(N)=O)cc2n2ccccc12,-4,x,6%,0,-462,
Cn1ccc(-c2cc(C(=O)O)c3ccccc3n2)n1,3,x,-3%,-4,3.6,
Cn1c(=O)n(C)c2cc(S(=O)(=O)Nc3cc(Cl)ccc3O)ccc21,3,x,-4%,-3,0.7,
CCOC(=O)c1c(C)[nH]c(C(=O)CN2CCN(CC)CC2)c1C,-2,x,3%,x,2.1,
CCCCCn1c(=O)c(C(=O)Nc2cccc(C)n2)c(O)c2ccccc21,-2,x,x,x,0.2,
O=Cc1coc2ccc3ccccc3c2c1=O,-3,x,x,x,-3.3,
CCOc1ccc(NC2=C(Cl)C(=O)N(Cc3ccccc3)C2=O)cc1,38,-34,19%,2,x,
Cc1cccc(C)c1Nc1nnc(SC/C(O)=C(\C#N)c2nc3ccccc3[nH]2)s1,0,-24,0%,30*,6.3,
COc1ccc(-n2cccc2C=O)cc1OC,7,-12,-4%,2,-2.7,
Cc1cccc(OCC(=O)Nc2ccc3c(c2)nc(CCN2CCC(C)CC2)n3C)c1,-1,x,x,x,-0.8,
O=C(Cn1cnc2ccccc2c1=O)N1CCN(Cc2ccc3c(c2)OCO3)CC1,-22,5,x,1,-2.8,
Nc1nc(SCC(=O)c2ccc(Br)s2)n[nH]1,-9,x,2%,0,0.2,
CC(C)SCc1nc2ccccc2[nH]1,7,-41,x,12,x,
COc1ccc(C(CNC(=O)c2cccc(S(=O)(=O)NCc3ccccc3)c2)N2CCOCC2)cc1 (stereo not given),-8,x,x,x,0.6,
CN(C)C(=O)Nc1ccc(F)cc1F,-4,33,-5%,7,-3.3,
CC(=O)Nc1ccc2c(c1)nc(CN1CCCC1)n2C,-4,-1,-2%,-4,0.7,
COc1ccc(N2CCN(c3nc4ccc(C)cn4c(=O)c3C=O)CC2)cc1,10,x,4%,-4,-6.2,
COc1ccc(C(CC(=O)O)NS(=O)(=O)c2ccc3c(c2)NC(=O)CO3)cc1 (stereo not given),3,x,x,x,-2.1,
Cc1cc(C)n2c(SCc3ccc(Cl)cc3Cl)nnc2n1,-5,-10,7%,-6,2.9,
CCOC(=O)C1(CCc2ccccc2)CCN(C(=O)C2CCCO2)CC1 (stereo not given),-5,x,2%,5,4.7,

# Screening results deposited in PubChem BioAssay by several laboratories.
